Compound activity as filed in PubChem.
Mtb betalactam = beta-lactam sensitization of Mtb H37Rv; 0.27% of 330,000 active; AID 434955; inhibition, % at 25 µM; M. tuberculosis H37Rv growth with meropenem, percent inhibition; hits of this screen are not shown here;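 active = about 74% or more and at least 40 points above the plate without the antibiotic, then above 30% in a dose series; inconclusive = first-round hits that could not be retested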;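 also: growth measured after seven days incubation then overnight dye step; 0% = bacteria only wells and 100% = bacteria with antibiotic; twin plates without the antibiotic show which effects depend on it; some results filed as inactive read as strong as hits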
RecA intein inh = Mtb RecA intein splicing inhibition. P9WHJ3. cell-free RecA intein splicing, fluorescence. inhibition, %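 (about 9 µM by stock and volumes)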. 0.75% of 290,000 active. AID 2221; in the data active = inhibition above about 30%; inconclusive = no clear call, values can overlap the other calls;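 also: 0% = vehicle wells and 100% = reference inhibitor control wells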
Target sequence (P9WHJ3 whole entry, looked up): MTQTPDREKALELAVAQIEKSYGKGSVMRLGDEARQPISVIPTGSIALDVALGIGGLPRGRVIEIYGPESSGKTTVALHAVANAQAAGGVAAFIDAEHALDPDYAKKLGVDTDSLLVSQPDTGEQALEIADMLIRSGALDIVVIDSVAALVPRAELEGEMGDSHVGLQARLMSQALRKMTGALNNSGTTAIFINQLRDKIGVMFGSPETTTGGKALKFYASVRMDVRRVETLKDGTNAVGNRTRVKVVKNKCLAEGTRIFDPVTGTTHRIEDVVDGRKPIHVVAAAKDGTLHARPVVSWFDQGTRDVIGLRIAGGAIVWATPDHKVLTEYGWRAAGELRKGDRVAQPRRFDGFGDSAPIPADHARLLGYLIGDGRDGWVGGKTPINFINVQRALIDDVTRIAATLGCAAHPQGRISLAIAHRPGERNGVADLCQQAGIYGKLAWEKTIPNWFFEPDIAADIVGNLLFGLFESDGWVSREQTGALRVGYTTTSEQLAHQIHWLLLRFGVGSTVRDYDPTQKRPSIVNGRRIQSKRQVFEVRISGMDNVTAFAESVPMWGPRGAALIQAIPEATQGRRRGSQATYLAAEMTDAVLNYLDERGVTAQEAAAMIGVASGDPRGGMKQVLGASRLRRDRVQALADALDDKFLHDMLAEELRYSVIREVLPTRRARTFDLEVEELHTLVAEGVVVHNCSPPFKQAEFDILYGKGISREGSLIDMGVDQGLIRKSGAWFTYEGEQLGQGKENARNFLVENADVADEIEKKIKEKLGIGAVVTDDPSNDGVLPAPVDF
Mtb H37Rv = M. tuberculosis H37Rv growth inhibitors, H37Rv strain (AID 1626); M. tuberculosis H37Rv growth inhibition; higher % means a stronger effect; 0.95% of 220,000 active; one-dose inhibition, % at 10 µM; IC50 in µM for titrated hits;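 active = confirmed in a dose series; inconclusive = inhibition above 80% but not taken into the dose series; inactive = below 80% or under 30% at every dose of the series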;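 also: bacteria incubated seven days before Alamar blue readout; 0% = bacteria only wells and 100% = bacteria with antibiotic wells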
Arbovirus inh = blocks arbovirus infection. arbovirus infection cell-based antiviral screen. inhibition, % at 10 µM. 0.37% of 200,000 active. AID 1251;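 active = inhibition from about 30%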;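 also: bluetongue infection of BSR cells; cell survival read as ATP light after 72 h; 0% = infected wells without compound and 100% = uninfected wells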
YopH PTP inh = YopH (Yersinia) phosphatase inhibition; AID 898; fluorescence Ex485/Em525; inhibition, %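 (about 10 µM by stock and volumes)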; 0.16% of 140,000 active;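 active = inhibition of 50% or more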;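 also: controls were vehicle for no effect and minimum signal wells for full effect; inactives centre near -20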
Arbovirus inh repeat = also measured in Arbovirus inh; calls as there; inhibition, %; measured here: 10K subset replicate screen; many hits read low in the repeat;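 first of two repeat runs on a subset; 0% = infected and 100% = uninfected wells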
* marks the source's active call; other numbers are inactive results; ? = inconclusive; · = not tested or not shown; & = joins results of further samples. The list is partial (hit frequency here may not be typical).

SMILES | Mtb betalactam | RecA intein inh | Mtb H37Rv | Arbovirus inh | YopH PTP inh | others
CCOc1ccc(/C=N/NC(=O)C(OC)c2ccccc2)cc1 (stereo not drawn) | -5 | -0.3 | 5% | -2 | ·
COc1ccc(C(=O)N2CCCC(CO)(Cc3ccccc3C)C2)o1 (stereo not drawn) | -4 | 5.2 | · | · | ·
O=C(CCCN1C(=O)/C(=C/c2ccc(F)cc2)SC1=S)NCCCn1ccnc1 | 12 | 17 | · | · | ·
C[C@]12CCC(=O)CC1CCC1C2CC[C@]2(C)C(OC(=O)CCC(=O)O)CCC12 (stereo partly drawn) | ? | -2.5 | · | · | ·
O=C(Cn1cnc2ccccc21)N/N=C/c1cccnc1 | -1 | -0.8 | -4% | 9 | ·
COc1ccccc1CCc1nnc(CCC(=O)NC(C)Cn2nc(C)cc2C)o1 (stereo not drawn) | -8 | 7.2 | 2% | 4 | ·
Cc1ccc2nc(NC(=O)Cn3cc4c(n3)CCCCC4)sc2c1 | 12 | 0.0 | 7% | 5 | -17 | Arbovirus inh repeat=1
O=C(CN1C(=O)NC2(CCCC2)C1=O)N1CCN(S(=O)(=O)c2ccccc2Br)CC1 | -12 | -0.3 | · | · | ·
CC(=O)Nc1ccc(C(=O)OCc2ccc(F)cc2Cl)cc1 | 4 | 3.0 | 3% | 10 | ·
Cc1cc(C)nc(NS(=O)(=O)c2ccc(Br)s2)c1 | -1 | 3.8 | 8% | 5 | -27 | Arbovirus inh repeat=4
COc1ccc(N(CCCN2C(=O)c3cccc4cccc(c34)C2=O)C(=O)c2cccc(OC)c2)cc1 | 4 | 15 | 6% | -1 | -5
COc1ccc(CCCc2nnc(SCC(=O)Nc3nc(C)cs3)n2C)cc1 | -10 | 1.0 | -8% | 3 | 2
COc1ccc(C2=C(O)C(C)N(c3ccccc3)C2=N)cc1OC (stereo not drawn) | -6 | 1.3 | -7% | 4 | -18
Cc1cc(C)c2c(N)c(C(=O)N3CCN(c4ncccn4)CC3)sc2n1 | -7 | -3.6 | -8% | -3 | -25
Cc1ccc(C)c(N2CCN(C(=S)Nc3ccc4nc(N5CCOCC5)cc(C)c4c3)CC2)c1 | 1 | -1.3 | 7% | 0 | ·
COc1ccc(-c2ccc3ccccc3n2)cc1 | -3 | 2.6 | 3% | -9 | ·
COc1ccc(S(=O)(=O)N2Cc3ccccc3CC2C(=O)Nc2nccs2)cc1OC (stereo not drawn) | 47 | -0.2 | 1% | 1 | -13
CCCn1c(-c2ccc(OC)cc2)nc2nc3ccccc3nc21 | -10 | -14 | 4% | -1 | -13
CCN(CC)CCCCNc1ncc2cc(-c3cc(OC)cc(OC)c3)c(NC(=O)NC(C)(C)C)nc2n1 | 7 | -4.6 | · | · | ·
Cc1ccc[n+](C2C(c3ccc([N+](=O)[O-])cc3)C(C#N)=C([S-])NC2(O)C2CC2)c1 (stereo not drawn) | 44 | 4.0 | -8% | -2 | ·
CSc1ccc(CNc2nnnn2C)cc1 | -1 | -2.4 | 7% | 2 | ·
CSc1ccccc1NC(=O)CN(C)C(=O)Cn1c(=O)oc2ccccc21 | -7 | 0.5 | · | · | ·
COc1ccc(-c2nnc(SCC(=O)NCC3CCCO3)n2C)cc1 (stereo not drawn) | -2 | 0.1 | -4% | 6 | ·
Cc1ccc(Oc2c(C(N)=O)cc([N+](=O)[O-])cc2[N+](=O)[O-])cc1 | 100 | -1.1 | 8% | -32 | -12
COc1ccccc1NC(=O)NC1(C(=O)N2CCCCCC2)CCCCC1 | -7 | 0.5 | 2% | 1 | -14

Further entries follow.
SMILES | Mtb betalactam | RecA intein inh | Mtb H37Rv | Arbovirus inh | YopH PTP inh | others
O=C1CCCCCN1C(=O)c1cccc(C(=O)N2CCCCCC2=O)c1 | 4 | -0.8 | -5% | 9 | -27
CC(C)C(NS(=O)(=O)c1ccc2c(c1)OCCCO2)C(=O)O (stereo not drawn) | 3 | -1.3 | -2% | -1 | -21
O=C(O)CCC(=O)OCC1CCCO1 (stereo not drawn) | -10 | -1.7 | -8% | 5 | -28
CCNc1nc(NCC)nc(C(=O)NN)n1 | 36 | -1.1 | 2% | 3 | 36
Cc1ccc(NS(=O)(=O)c2cn(C)cn2)cc1 | -2 | 0.5 | 2% | -1 | 5
O=C1C2C3C=CC(C3)C2C(=O)N1/N=C/c1ccc(-c2ccccc2[N+](=O)[O-])o1 (stereo not drawn) | 0 | 0.7 | -14% | -2 | -6
CC(C)OC(=O)c1cc(NC(=O)C2C3CCC(O3)C2C(=O)O)cc(C(=O)OC(C)C)c1 (stereo not drawn) | 1 | 1.1 | 2% | 8 | -24
COc1ccc(C)cc1-n1nnnc1SCC1CCCCO1 (stereo not drawn) | 0 | -3.4 | 4% | 7 | -41
COc1ccc(N)cc1-n1c(C)ccc1C | -1 | -2.5 | 0% | -16 | ·
CCN(CC)CCNC(=O)c1ccc(NC(=O)c2cccc(S(=O)(=O)N3c4ccccc4CC3C)c2)cc1 (stereo not drawn) | -17 | 3.0 | · | · | ·
COc1cccc(CNC(=O)c2cccs2)c1 | 6 | 0.3 | · | · | ·
O=c1c2[nH]c3ccccc3c2ncn1CCN1CCNCC1 | -3 | -2.0 | -11% | -9 | -5
Cc1ccc(NS(=O)(=O)c2cc(C(=O)NCCSC3CCCCC3)ccc2C)cc1 | 4 | 3.6 | -6% | -14 | -10
Cn1nnnc1SCC(=O)N1c2ccccc2Sc2ccccc21 | -2 | 2.3 | -2% | 0 | 18
O=C(NCc1ccco1)/C(=C\c1ccco1)NC(=O)c1ccco1 | -5 | 3.2 | -5% | · | ·
O=C(Nc1ccccc1N1CCN(C(=O)c2ccc(Cl)cc2)CC1)c1ccc([N+](=O)[O-])o1 | 5 | 4.3 | · | · | ·
CCCCC(=O)Nc1ccc(N2CCN(C(=O)CC)CC2)cc1 | -8 | -2.2 | 6% | 1 | -117
CC(C)n1nc(C(=O)Nc2nc3ccc(S(C)(=O)=O)cc3s2)c2ccccc2c1=O | 16 | 4.8 | 2% | -17 | ·
CCCc1cc(=O)oc2cc(OCC(=O)NCCCn3ccnc3)c(Cl)cc12 | -3 | -0.8 | · | · | ·
CC(=O)c1sc(NC(=O)c2ccc(F)cc2)nc1-c1ccccc1 | -4 | · | -2% | 10 | ·
CCc1cc(Cn2nc(-c3ccccc3)cc2C(=O)NCc2ccc(C)cc2)on1 | 2 | -1.9 | · | · | ·
Cc1cc(C)c2nc(SC3CCOC3=O)cc(C)c2c1 (stereo not drawn) | 4 | -2.1 | -6% | -6 | ·
COc1ccc(/C=C/C(=O)Nc2nc(C)cc(C)n2)cc1OC | -5 | -3.3 | -7% | 1 | -16
CSc1ncc(C(C)=O)c(C)n1 | 0 | -0.2 | 4% | 8 | ·
Cc1ccc(N2CCN(c3cc(C)nc4nc(C)nn34)CC2)c(C)c1 | 6 | -0.5 | · | -9 | -25 | Arbovirus inh repeat=5

(more compounds)
SMILES | Mtb betalactam | RecA intein inh | Mtb H37Rv | Arbovirus inh | YopH PTP inh | others
CC(OC(=O)c1cnccn1)C(=O)c1ccccc1 (stereo not drawn) | -6 | 1.0 | · | · | ·
Cc1ccc(-c2cc(C(=O)Nc3c(C)n(C)n(-c4ccccc4)c3=O)[nH]n2)c(O)c1C | -4 | 0.1 | -7% | · | ·
COc1ccccc1C(=O)C1CCCN(C(=O)c2ccc3c(c2)OCCO3)C1 (stereo not drawn) | -5 | 1.5 | -4% | 2 | ·
Cc1ccccc1C(=O)NCCCNC(=O)c1ccccc1C | -3 | 0.5 | · | · | ·
Cc1ccc(C(C)C)c(OCCOCCN2CCNCC2)c1 | -9 | -0.8 | · | · | ·
Cc1ccc(-c2nn(CCC(=O)NN3CCOCC3)c(=O)c3ccccc23)cc1 | -7 | 0.6 | -7% | · | ·
CC(C)n1c(O)c(N=NC(=O)CNC(=O)Cc2ccc(Cl)cc2)c2ccccc21 | 6 | -2.8 | · | · | ·
COc1ccc(-c2nnc(N(C)C(=O)C3CCCO3)s2)cc1 (stereo not drawn) | -20 | -5.2 | 2% | 3 | -17
O=C(O)CSc1nc2c(c(C(F)(F)F)n1)CCCC2 | 4&7 | 0.5&-0.2 | 13%&-10% | 10 | ·
CS(=O)(=O)N(CC(=O)N1CCOCC1)c1ccc2c(c1)OCO2 | 5 | 0.1 | -9% | -4 | 9
COCC(C)n1c(SCC(=O)N(C)C2CCS(=O)(=O)C2)nc2ccccc2c1=O (stereo not drawn) | -8 | -2.5 | 1% | 1 | ·
Cc1cccc(C)c1NS(=O)(=O)c1cc2c3c(c1)CC(=O)N3CCC2 | -2 | -1.5 | · | · | ·
COc1ccc(N2C(=O)CC(N3CCN(c4cccc(Cl)c4)CC3)C2=O)cc1 (stereo not drawn) | 1 | -3.3 | · | · | ·
CCCCCCCCCCNC(=O)C(=O)Nc1ccccn1 | 98 | -0.5 | 7µM* | 11 | -5
COc1ccc(C(CC(=O)O)NC(=O)c2cc3cc(Br)ccc3oc2=O)cc1OC (stereo not drawn) | 3 | 0.4 | -2% | 5 | ·
C/C(=N/NC(=O)c1ccc(Cl)cc1Cl)c1cccnc1 | -8 | -1.4 | · | · | ·
COc1cccc(CNC(=O)Cc2csc(NC(=O)Nc3ccccc3OC)n2)c1 | 0 | 3.8 | · | · | ·
Fc1ccc(-c2ccc(CNCc3ccccn3)o2)cc1Cl | 96 | 2.4 | · | · | ·
Cc1cc(N/N=C/c2ccccc2)nc(NCc2ccccc2)n1 | 14 | 0.9 | 8% | 16 | -5
Cc1ccc(-c2nc3ccccc3c(=O)o2)cc1 | 11 | 4.1 | · | · | ·
Fc1cccc(Cl)c1-c1nnc2ccc(C(F)(F)F)cn12 | -2 | · | -6% | 4 | ·
CC(NC(=O)CN1CCN(Cc2cccc(F)c2)CC1)c1ccccc1 (stereo not drawn) | -2 | -0.4 | · | · | ·
Cc1ccc(NC(=O)Cc2nc(CCl)cs2)cc1 | 48 | 2.0 | -6% | -2 | -14
CC(C)[C@H](NC(=O)c1ccccc1)C(=O)OCC(=O)N1CCc2ccccc2C1 | 1 | 5.2 | -9% | -7 | 9
O=C(O)c1cc(NC(=O)c2cccc(C(=O)Nc3cc(C(=O)O)cc(C(=O)O)c3)c2)cc(C(=O)O)c1 | 0 | -1.1 | · | · | ·

As a working copy, 7 of the compounds above:
SMILES | Mtb betalactam | RecA intein inh | Mtb H37Rv | Arbovirus inh | YopH PTP inh | others
O=C(O)CSc1nc2c(c(C(F)(F)F)n1)CCCC2 | 4&7 | 0.5&-0.2 | 13%&-10% | 10 | ·
CS(=O)(=O)N(CC(=O)N1CCOCC1)c1ccc2c(c1)OCO2 | 5 | 0.1 | -9% | -4 | 9
COCC(C)n1c(SCC(=O)N(C)C2CCS(=O)(=O)C2)nc2ccccc2c1=O (stereo not drawn) | -8 | -2.5 | 1% | 1 | ·
Cc1cccc(C)c1NS(=O)(=O)c1cc2c3c(c1)CC(=O)N3CCC2 | -2 | -1.5 | · | · | ·
COc1ccc(N2C(=O)CC(N3CCN(c4cccc(Cl)c4)CC3)C2=O)cc1 (stereo not drawn) | 1 | -3.3 | · | · | ·
CCCCCCCCCCNC(=O)C(=O)Nc1ccccn1 | 98 | -0.5 | 7µM* | 11 | -5
COc1ccc(C(CC(=O)O)NC(=O)c2cc3cc(Br)ccc3oc2=O)cc1OC (stereo not drawn) | 3 | 0.4 | -2% | 5 | ·

(more compounds)
SMILES | Mtb betalactam | RecA intein inh | Mtb H37Rv | Arbovirus inh | YopH PTP inh | others
COc1cccc(CN(C)CC(=O)NC(=O)NCc2ccccc2)c1 | · | -1.4 | 9% | 8 | -17
CC(C)(C)NC(=O)CSc1nnc(-c2ccccn2)n1-c1ccccc1 | ? | 0.2 | -5% | 3 | -20 | Arbovirus inh repeat=1
C/C(=N\NC(=O)c1ccccc1F)c1ccccn1 | 100 | 3.1 | · | · | ·
CCNc1nc(NCC)n2c(SCC(=O)c3ccccc3Cl)nnc2n1 | 5 | -0.7 | -5% | 7 | ·
CCOC(=O)/C(C#N)=C1/C=C(C)NC(c2ccccc2O)=N1 | -6 | 2.6 | -2% | 15 | -22
Cc1ccc(Cn2ncc3c(N4CCN(c5ccc(C)cc5)CC4)ncnc32)cc1 | 5 | 0.7 | · | 6 | -34
Cc1cc2oc(=O)cc(CN3CCCCC3C)c2cc1C(C)C (stereo not drawn) | 75 | 7.4 | · | · | ·
Nc1ccc(S(=O)(=O)N2CCCC2C(=O)O)cc1 (stereo not drawn) | -3 | -2.3 | · | · | ·
O=S(=O)(/C=C/c1ccccc1)NCCc1ccccn1 | -4 | -1.3 | 3% | 7 | -31
Oc1ccc(/C=N/NC(=S)Nc2cccnc2)cc1O | 4 | -7.3 | -3% | -10 | -41
COc1ccc(Cl)cc1NC(=S)Nc1ccc(Cl)cn1 | 3 | -7.0 | 3% | 0 | ·
Cc1ccc(C(=O)Nc2ccon2)cc1S(=O)(=O)N1CCCC1 | · | -1.1 | 2% | 2 | -26
